# Rango release inh = inhibitors of RanGTP-induced Rango-importin beta complex dissociation | Potency, µM (titrated, usually from 46.1 µM), for inactives: at the top dose activity change, negative = inhibition | Biochemical FRET Rango-importin beta, RanGTP-induced dissociation | 340,000 tested, 0.071% active | O95149+P62826; active means falling FRET ratio curve, often poorly fitted, with flat reads before Ran was added; inconclusive means other falling curves, or compound fluorescence or quenching; inactive means flat or rising ratio curve;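 further: potency means the concentration at half of the fitted maximal effect; % of control where 0% means no effect; nearly all actives have a fitted effect of over 45% in size; -100% = wells without RanGTP and RCC1; the record marks most hits as doubtful in a second field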
#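 Compounds sat 5 min at room temperature with 0.1 uM Rango biosensor plus 0.25 uM importin beta, then FRET pre-read. RanGTP-RCC1 (0.6 uM Ran, 2mM GTP, 0.2 uM RCC1) added for 45 min, and the CFP/YFP post-read measured blocked complex dissociation.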
# miR-21 FLuc = raises the signal of a miR-21 reporter; HeLa miR-21 FLuc reporter, luciferase, 48 h; 340,000 tested, under 10 active; AID 2288; Potency, µM (highest dose often 38.3 µM), inactives show at the highest dose reporter change, positive = more light; active = well fitted rising curve with a large enough effect; inconclusive = small, poorly fitted or top-dose-only effect; inactive = no such curve, though single readings can be large or run the other way;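 further: % of control where 0% means no effect; miR-21 action dims this reporter so a rising signal means less miR-21 action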
#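 HeLa cells stably expressing CMV-driven firefly luciferase with a downstream miR-21 binding sequence, endogenously expressing miR-21, were treated with titrations (up to about 40uM final) for 48 hours at 37 degree Celsius. Luciferase luminescence was read after lysis.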
# Rango complex inh = prevents formation of the Rango-importin beta complex | Rango CFP/YFP FRET sensor + importin beta, 45 min | 340,000 tested, 0.031% active | AID 540263 | Q14974 | Potency, µM (doses to about 92.2 µM), for inactives: top-dose inhibition of complex formation; active = rising FRET ratio curve, often small or poorly fitted; inconclusive = mostly compound fluorescence or quenching in the first reads; inactive = flat curves in all reads;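 further: potency means the concentration at half of the fitted maximal effect; 0% = DMSO wells and 100% = buffer wells lacking importin beta; nearly all actives have a fitted effect of over 15% in size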
# Target sequence (Q14974 whole entry, looked up): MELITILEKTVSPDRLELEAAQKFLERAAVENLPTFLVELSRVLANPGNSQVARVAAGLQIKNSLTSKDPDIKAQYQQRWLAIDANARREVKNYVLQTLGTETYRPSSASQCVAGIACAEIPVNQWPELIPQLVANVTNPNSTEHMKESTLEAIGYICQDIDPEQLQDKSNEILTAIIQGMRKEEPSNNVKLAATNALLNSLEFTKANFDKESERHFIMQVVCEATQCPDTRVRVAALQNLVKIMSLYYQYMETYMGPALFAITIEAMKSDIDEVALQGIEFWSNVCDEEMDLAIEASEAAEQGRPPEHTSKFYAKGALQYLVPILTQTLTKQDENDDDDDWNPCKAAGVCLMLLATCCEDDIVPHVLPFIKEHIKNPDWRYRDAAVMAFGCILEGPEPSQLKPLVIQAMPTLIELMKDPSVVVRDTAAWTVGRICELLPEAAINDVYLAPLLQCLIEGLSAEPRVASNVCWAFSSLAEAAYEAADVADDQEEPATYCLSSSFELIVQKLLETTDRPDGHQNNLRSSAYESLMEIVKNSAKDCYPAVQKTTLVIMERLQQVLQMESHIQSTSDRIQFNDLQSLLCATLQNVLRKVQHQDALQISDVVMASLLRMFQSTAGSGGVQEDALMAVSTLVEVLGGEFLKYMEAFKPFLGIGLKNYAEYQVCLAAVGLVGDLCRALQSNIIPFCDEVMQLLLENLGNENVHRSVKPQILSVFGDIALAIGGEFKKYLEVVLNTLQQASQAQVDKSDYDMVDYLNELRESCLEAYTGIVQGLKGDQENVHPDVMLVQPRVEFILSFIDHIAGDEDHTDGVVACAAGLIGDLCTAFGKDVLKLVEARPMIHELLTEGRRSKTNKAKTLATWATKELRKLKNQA
#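 Inhibition scored from the CFP 486 nm/YFP 530 nm FRET ratio 45 min after adding 0.125 microM importin beta to 50 nM Rango biosensor preincubated 5 min with compound (room temperature, PBS with DTT, Tween-20, BSA). No-importin wells as positive control.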
# GLA inh pH 4.5 = alpha-galactosidase A (human) inhibition, pH 4.5; P06280; purified enzyme, 4-MU-alpha-Gal fluorescence, pH 4.5; activity change, negative = inhibition, % at 105 µM; 230,000 tested, under 10 active; AID 1467; inconclusive = small, poorly fitted or top-dose-only inhibition, or a rising curve; inactive = flat fitted curve, though single readings scatter; no compound was filed as active;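 further: 0% = full activity with enzyme and -100% = basal without enzyme; dose as in the result columns while the protocol names 77 µM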
# Numbers without * were called inactive; ? = inconclusive; nt = no result given. An excerpt, so the mix of outcomes need not match the whole.
SMILES,Rango release inh,miR-21 FLuc,Rango complex inh,GLA inh pH 4.5
COc1ccc(NC(=O)NC(=O)c2ccccc2)cc1,31.7%,-55.0%,1.9%,nt
Cc1ccc(F)cc1CNC(=O)c1cc(COc2ccc3ncccc3c2)on1,14.1%,18.6%,3.2%,1.9
CCOC(=O)C1=C(c2ccccc2)NC(SCC)=C(C#N)C1c1cccnc1 (centres undefined),-15.5%,-2.9%,8.1%,0.7
COc1ccc(CCNC(=O)C2CCCN(S(=O)(=O)c3ccc(OC)cc3)C2)cc1 (centres undefined),-7.9%,9.8%,-3.2%,nt
O=C(c1cccc([N+](=O)[O-])c1)c1ccccn1,25.6%,0.0%,-0.4%,-2.3
CCC(=O)N1CCc2cc(S(=O)(=O)NCCC(=O)N3CCc4ccccc4C3)ccc21,-2.1%,0.2%,2.6%,-2.1
COC(=O)C1N[C@@H]([C@@H](NC(=O)COc2ccccc2)C(=O)NCc2ccsc2)SC1(C)C (some centres undefined),-4.2%,nt,2.4%,nt
CCOC(=O)/C(C#N)=N/Nc1c(S(=O)(=O)Cc2ccco2)csc1C(=O)OC,5.5%,1.3%,1.1%,-5.3
COCC1CCCN(C(=O)c2ccc3nc(Cc4cccc(Cl)c4)oc3c2)C1 (centres undefined),-11.1%,-38.4%,-0.8%,nt
CC(C)(C)CN1CCNC(=O)C1CC(=O)NCCc1ccccc1C(F)(F)F (centres undefined),-4.1%,0.8%,-3.9%,6.8
Clc1cccc(OCCN2CCCC2)c1,1.0%,-3.3%,2.4%,nt
CC(=O)c1cccc(N(CC(=O)NC2CCCC2)C(=O)c2csnn2)c1,17.0%,-3.4%,-7.7%,nt
CC(C)c1ccc(C2NC(=S)NC3=C2C(=O)CCC3)cc1 (centres undefined),10.1%,-6.9%,5.0%,3.7
C=CCc1c(C)nc(SCCC)[nH]c1=O,0.3%,-4.8%,0.6%,2.7
CCc1ccc(-c2cc(C)no2)cc1S(=O)(=O)N1CCC(C)CC1,23.3%,-4.6%,-4.9%,nt
CCC1CCCCN1CCCNC(=O)CNC(=O)c1nn(-c2ccc(OC)cc2)c(=O)c2ccccc12 (centres undefined),-1.8%,-0.1%,-3.3%,nt
Cc1nc(SCC(=O)NCc2ccccc2)c2c(=O)n(C)c(=O)n(C)c2n1,-0.1%,1.1%,-0.9%,2.9
COc1ccc(/C=N/NC(=O)C(O)(c2ccccc2)c2ccccc2)cc1OC,-11.4%,-0.9%,-4.5%,-14.4
CCOC(=O)c1sc(NC(=O)C2CC(=O)N(c3ccccc3OC)C2)nc1C (centres undefined),-0.2%,nt,0.7%,nt
COc1ccccc1/C=C/C(=O)Nc1cccnc1Cl,?,-58.1%,-1.2%,nt
C=CCc1cccc(/C=N/NC(=O)c2ccccc2OC)c1O,-10.7%,-2.1%,1.0%,-0.1
CC(C)[C@H]1COCCS(=O)(=O)N1Cc1ccccc1-c1ccc(C(C)(C)C)cc1,-3.3%,nt,?,nt
COc1cccc(NC(=O)NC2(C(=O)N3CCC(O)CC3)CCCCC2)c1,4.6%,-3.0%,-1.2%,nt
COc1ccccc1NS(=O)(=O)c1ccc(O)c(C(=O)OCC(=O)N2CCc3ccccc32)c1,-17.8%,-5.0%,-0.8%,-2.9
CC(=O)COc1ccc2c(C)c(-c3ccccc3)c(=O)oc2c1,-11.5%,-24.7%,-4.4%,3.5
Cc1ccc2[nH]c(SCC(=O)N3CCOCC3)nc2c1C,6.1%,-46.0%,?,-5.2
COc1ccccc1NC(=O)C1=C(C)Nc2nc3ccccc3n2C1c1cccs1 (centres undefined),-3.1%,22.3%,1.5%,-11.9
CCOC(=O)C1Nc2ccc(Br)cc2C2C=CCC12 (centres undefined),1.4%,0.4%,-4.0%,nt
CCCn1c(SCC(=O)Nc2nnc(CC)s2)nc2c1c(=O)n(C)c(=O)n2C,nt,-5.8%,nt,2.6
Cc1ccc(NC(=O)COc2ccc(C3SCCS3)cc2)cc1,3.3%,-4.0%,3.0%,5.1
CCOC(=O)[C@H]1[C@H]2COc3ccc(OC)cc3[C@@H]2N2C(=O)CN(Cc3ccc(C)cc3)C(=O)[C@@]12C,-4.2%,nt,3.9%,nt
O=C(N=C1SCC(=O)N1c1ccccc1)c1ccco1,-23.2%,-51.8%,1.4%,4.2
CN(C)CCNC(=O)/C(=C/c1cccc([N+](=O)[O-])c1)NC(=O)c1ccccc1,-19.2%,-0.1%,1.0%,-14.6
C=CCn1c(SCC(=O)Nc2cc(C)on2)nnc1C1COc2ccccc2O1 (centres undefined),?,1.3%,-0.9%,-10.5
O=C(O)c1cc(-c2ccccc2)nn1CC1CC(c2cccnc2)=NO1 (centres undefined),11.4%,nt,-3.1%,nt
CCOC(=O)C1=C(O)/C(=C\c2cccc(OC)c2)N=C1C,-16.1%,-4.0%,?,1.4
CCn1c(SCC(=O)NC2CCCCC2)nnc1-c1ccccc1F,9.1%,-0.1%,?,nt
NC(=O)CC12CC3CC(C1)CC(CC(N)=O)(C3)C2,-9.3%,-3.9%,-0.1%,-5.8
COc1ccc(-n2nc(C(=O)O)nc2-c2ccccc2)cc1,17.9%,-1.8%,0.0%,1.7
CCc1cc(=O)oc2cc(C)cc(OCC(=O)NCc3cccnc3)c12,-12.9%,-2.4%,0.6%,nt
COc1ccc(OCCSc2nnnn2C2CCCCC2)cc1,-1.8%,-23.2%,-2.5%,-8.2
CCOC(=O)Cc1csc(NC(=O)CSc2nnc(-c3ccc(F)cc3)o2)n1,-6.8%,-5.1%,-2.8%,-4.1
CCOC(=O)Cc1cnc(NC(=O)CSc2nc(N)cc(=O)[nH]2)s1,14.2%,2.1%,4.4%,0.6
Cc1cc(C)n2c(SCC(=O)N(CC(C)C)c3c(N)n(CC(C)C)c(=O)[nH]c3=O)nnc2n1,25.6%,-0.8%,?,8.0
CC(C)CCNC(=O)NC(=O)CSc1nnc(-c2ccccc2F)n1N,5.4%,0.6%,0.3%,-6.3
CC(C)C[C@H](NC(=O)C1CCC(CNC(=O)[C@@H]2CCCN2C(=O)OC(C)(C)C)CC1)C(=O)O (some centres undefined),?,3.5%,-0.4%,nt
O=C(O)C1CC=CCC1C(=O)c1ccccc1 (centres undefined),-0.7%,1.6%,-1.6%,-5.7
CC(C)(C)c1cc(CP(=O)(c2ccccc2)c2ccccc2)cc(C(C)(C)C)c1O,0.7%,29.8%,2.8%,nt
FC(F)Oc1cccc2cccnc12,0.3%,-0.5%,0.1%,-1.2
Cc1ccc(NC(=O)CCSc2ccccc2)c(C)c1,nt,-51.9%,nt,9.2
Cc1ccc(S(=O)(=O)N(C)c2ccc(C(=O)Nc3cccc(C)n3)cc2)cc1,6.3%,13.8%,-0.6%,nt
CN1CCN(c2ccc(NC(=O)c3cc(S(N)(=O)=O)ccc3N3CCOCC3)cc2)CC1,-0.3%,nt,1.6%,nt
CC1CCN(c2ccc3c(c2)S(=O)(=O)c2cccc(C(=O)NC4CC4)c2C3=O)CC1,?,nt,?,nt
COc1ccc(C(=O)CSc2nc(=O)n(Cc3cccnc3)c3c2CCC3)cc1,-4.5%,nt,?,nt
CCN(CC(=O)NC1CCS(=O)(=O)C1)Cc1nc2c(Br)cc(Br)cc2c(=O)[nH]1 (centres undefined),-3.9%,0.1%,?,-19.7
Cc1cccc(NS(=O)(=O)c2cc3c(cc2C)n(C)c(=O)c(=O)n3C)c1,11.9%,7.1%,0.0%,nt
CCOC(=O)C1(CC2CCCCO2)CCN(Cc2nc(-c3cccs3)oc2C)CC1 (centres undefined),-1.6%,3.9%,-1.7%,0.3
COc1ccc2ccc(O)c(CN(C)CC(=O)Nc3ccccc3C(F)(F)F)c2c1,-7.7%,4.5%,0.7%,nt
CCN(C(=O)CN1C(=O)/C(=C/c2ccc(F)cc2)SC1=S)C1CCS(=O)(=O)C1 (centres undefined),-11.4%,0.3%,1.9%,nt
COc1ccc(CSc2nc3ccccc3c(=O)[nH]2)cc1F,15.0%,-18.1%,-1.1%,5.7
# Next section.
SMILES,Rango release inh,miR-21 FLuc,Rango complex inh,GLA inh pH 4.5
CC(=O)Cc1nsc(NC(=O)c2ccc(-c3ccc(Cl)cc3Cl)o2)n1,-4.4%,-5.1%,-2.3%,-8.3
COc1ccc(NC(=O)CN(C)C(=O)CC2CCCC2)cc1,24.2%,nt,6.7%,nt
O=C(CSc1nnc(CCc2nc3ccccc3[nH]2)n1-c1ccccc1)NCc1ccco1,1.5%,3.8%,-0.8%,-19.9
COc1cc(S(=O)(=O)NCc2ccc(F)cc2)ccc1-n1cnnn1,13.6%,-0.9%,-1.1%,nt
COc1ccc(C(C)NC(=O)c2ccccc2)cc1 (centres undefined),-1.3%,0.2%,-0.3%,4.3
C=CCN1C(=O)C2C(C(=O)NC3CCCC3)C3C=CC2(O3)C1C(=O)NC1CCCC1 (centres undefined),1.0%,8.7%,0.6%,nt
COc1ccc(OC)c(NC(=O)COc2coc(CN3CCc4ccccc43)cc2=O)c1,-4.5%,nt,0.1%,nt
CC(C)C(=O)N(Cc1ccccc1)c1ccccn1,-12.8%,3.3%,-0.9%,8.1
O=C(CCc1nnc2n(Cc3ccc(Cl)cc3)c(=O)c3ccccc3n12)NCCN1CCCC1,-1.6%,-2.7%,8.4%,nt
CNC(=O)COC(=O)/C=C/c1ccc(F)cc1,-1.0%,-1.1%,-2.6%,2.8
CCCCC1CC1C(=O)Nc1ccc(OC)c(OC)c1 (centres undefined),0.7%,-10.4%,0.7%,-1.5
O=C1CC(c2ccccc2)CN1C(=O)c1ccccc1 (centres undefined),-7.4%,-6.2%,-4.5%,3.0

# 7 compounds drawn at random from the list so far, as already listed:
SMILES,Rango release inh,miR-21 FLuc,Rango complex inh,GLA inh pH 4.5
C=CCN1C(=O)C2C(C(=O)NC3CCCC3)C3C=CC2(O3)C1C(=O)NC1CCCC1 (centres undefined),1.0%,8.7%,0.6%,nt
CCCCC1CC1C(=O)Nc1ccc(OC)c(OC)c1 (centres undefined),0.7%,-10.4%,0.7%,-1.5
O=C1CC(c2ccccc2)CN1C(=O)c1ccccc1 (centres undefined),-7.4%,-6.2%,-4.5%,3.0
O=C(CCc1nnc2n(Cc3ccc(Cl)cc3)c(=O)c3ccccc3n12)NCCN1CCCC1,-1.6%,-2.7%,8.4%,nt
COc1ccc(OC)c(NC(=O)COc2coc(CN3CCc4ccccc43)cc2=O)c1,-4.5%,nt,0.1%,nt
COc1ccc(C(C)NC(=O)c2ccccc2)cc1 (centres undefined),-1.3%,0.2%,-0.3%,4.3
CC(C)C(=O)N(Cc1ccccc1)c1ccccn1,-12.8%,3.3%,-0.9%,8.1

# (further entries)
SMILES,Rango release inh,miR-21 FLuc,Rango complex inh,GLA inh pH 4.5
C=CCN(c1cccc(C(F)(F)F)c1)S(=O)(=O)c1cccc(C(=O)OCC(=O)Nc2ccccc2)c1,4.1%,-10.0%,5.2%,23.4
CCOC(=O)Nc1c2ccccc2nc2ccccc12,?,?,?,?
Cc1cc(OC(=O)c2cc(Cl)nc3ccccc23)ccc1Cl,0.7%,-0.3%,-1.5%,-1.2
CC(C)CCNC(=O)c1ccc(-n2cnc3cccnc32)cc1,4.6%,-14.1%,-1.4%,nt
S=c1[nH]nc(-c2cccs2)n1/N=C/c1cccs1,2.1%,-1.6%,2.0%,2.0
COc1ccc(-c2nc3scc(-c4ccccc4)n3n2)cc1,18.9%,-5.7%,-5.1%,-4.9
Cc1ccc(NS(=O)(=O)c2ccc3c(c2)NC(=O)CO3)cc1C,-1.5%,4.7%,0.1%,nt
COc1ccc(/C=C/C(=O)O)cc1S(=O)(=O)N1CCC(C)CC1,-9.0%,-0.5%,0.0%,-5.6
O=[N+]([O-])c1cccc(CSc2nc3ccccc3[nH]2)c1,2.9%,-43.8%,-2.1%,-1.2
O=C(COc1ccccc1Cl)NC(=O)NC1CCCC1,5.5%,-62.4%,4.4%,8.9
Cc1c(N(C)S(=O)(=O)c2ccc(Cl)c(C(=O)N3CCC(C(N)=O)CC3)c2)c(=O)n(-c2ccccc2)n1C,11.0%,nt,4.0%,nt
Cc1cccc(N(CC(=O)NC(C)(C)C)C(=O)CNC(=O)c2cccs2)c1C,?,-1.1%,-1.5%,8.0
O=C(Nc1ccc(C(F)(F)F)cc1)c1ccc2ncsc2c1,9.8%,-56.1%,0.0%,nt

# Compound activity: PubChem BioAssay, National Center for Advancing Translational Sciences (NCATS)
